From PubChem
gsp antagonist – gsp mutant antagonism; gsp-mutant cells, cAMP HTRF, 30 min; control for the full effect not named in the record; Potency, µM (series often up to 76.9 µM), inactives show top-dose activity change, negative = inhibition, hits mostly inhibitors; actives 0.4% (n = 340,000); active = falling curve of any shape with a large fitted effect; inconclusive = falling curve, mostly with a smaller effect; inactive = flat or rising curve; cell line not stated here;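 further: intracellular cAMP measured with PDE inhibitor Ro 20-1724 present during compound exposure; potency means the concentration at half of the fitted maximal effect; on the % scale 0 is the no-effect control and ±100 the full control effect; nearly all actives have a fitted effect of over 65% in size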
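HTRF cAMP read-out (cAMP-d2 plus anti-cAMP antibody-K in lysis buffer, 30 min RT). Before lysis, cells are exposed to compounds with […] for 30 min at 37C in DPBS containing Ca/Mg, BSA and Tween 20.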
PINK1 expr mod – PINK1 expression modulation. AID 624263. actives 0.2% (n = 410,000). PINK1 immunofluorescence, high-content cytometry, 24 h. Potency, µM (highest dose often 76.6 µM), for inactives: at the highest dose activation (PINK1 increase), usual class: activators; active = well fitted activation curve with a large enough effect; inconclusive = small, poorly fitted or top-dose-only effect; inactive = flat fitted curve, though single readings scatter; cell line not stated here;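 further: potency means the concentration at half of the fitted maximal effect; % of control where 0% means no effect; nearly all actives have a fitted effect of over 65% in size; a mitochondrial uncoupler was the plate control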
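A stable cell line was treated with compounds at 5 concentrations for 24 hours, with CCCP as control. PINK1 levels and mitochondrial localization were measured by immunofluorescence with mitochondrial, cell and nuclear markers after fixation, read by laser-scanning cytometry.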
ClpP mod – qHTS Assay for Activators of ClpP; ATP-dependent Clp protease proteolytic subunit (Bacillus subtilis (strain 168)), P80244; purified B. subtilis ClpP, FRET peptide cleavage, 20 min; Potency, µM (highest dose often 57.5 µM), inactives show top-dose activity change, negative = active; actives 1.9% (n = 340,000); active = well fitted falling curve with a large enough effect; inconclusive = small, poorly fitted or top-dose-only effect; inactive = no such curve, though single readings can be large or run the other way; further: potency means the concentration at half of the fitted maximal effect; the source files actives as falling curves though it sought activators and does not explain the sign; nearly all actives have a fitted effect of over 65% in size; many hits overshoot -100%
Target sequence (P80244 whole entry, looked up): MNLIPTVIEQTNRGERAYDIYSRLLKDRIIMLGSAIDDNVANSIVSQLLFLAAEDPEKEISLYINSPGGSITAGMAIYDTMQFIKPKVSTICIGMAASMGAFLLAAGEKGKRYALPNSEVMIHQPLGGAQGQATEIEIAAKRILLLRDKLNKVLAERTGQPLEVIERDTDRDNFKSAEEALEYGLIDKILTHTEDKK
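Purified B. subtilis ClpP, 10 microg/mL final in Tris/HCl pH8 with KCl, BSA, glycerol and Tween-20, cleaved an Abz/nitrotyrosine-quenched decapeptide. Fluorescence (ex 320, em 430) was read at 0 and 20 min at room temperature. Delta was normalized to 5.8 microM ADEP and DMSO/no-enzyme controls.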
gsp ag – activates gsp, the McCune-Albright syndrome mutation | Potency, µM (series often up to 76.9 µM), without a hit: top-dose activation (cAMP increase), hits mostly activators | gsp mutant cells, cAMP HTRF, 30 min; control for the full effect not named in the record | actives 0.13% (n = 340,000); active = well fitted activation curve with a large enough effect; inconclusive = small, poorly fitted or top-dose-only effect, or another doubt; inactive = no such curve, though single readings can be large or run the other way; cell line not stated here;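 further: phosphodiesterase inhibitor Ro 20-1724 added with compounds to block cAMP breakdown; potency means the concentration at half of the fitted maximal effect; nearly all actives have a fitted effect of over 60% in size; about a fifth of the inactives were tested at one dose only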
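Cells stably selected in G418 were plated at 2000/well, grown 16-24 hr, then given compounds in DMSO with the PDE inhibitor […] (300 uM solution added) for 30 min at 37C; cAMP was read by HTRF.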
Menin MLL FP FL – displaces fluorescein MLL peptide from human menin; Fluorescence polarization, fluorescein-MLL peptide displacement from menin; FP activity change, % at 61.4 µM; 290,000 tested, under 10 active; inconclusive = falling polarisation curve, or a change in total fluorescence; inactive = total fluorescence flat and polarisation flat or rising; no compound was filed as active; the % refers to the polarisation; negative = inhibition;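 further: % of control where 0% means no effect; inhibitors lower the polarisation; unlabelled MLL peptide was the positive control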
D2 ag – human D2 receptor agonism in beta-arrestin assay. P14416. DiscoveRx PathHunter D2 beta-arrestin, luminescence, 90 min; 100% = 57 uM dopamine signal. activation, % (concentration not given with the values). actives 0.084% (n = 360,000). AID 624465; in the data active = activation above about 40%; inconclusive = about 15% to 40%; inactive = below about 15%; further: compound concentration not given in the record; the text of the record calls up to 30% inactive
Target sequence (P14416 whole entry, looked up): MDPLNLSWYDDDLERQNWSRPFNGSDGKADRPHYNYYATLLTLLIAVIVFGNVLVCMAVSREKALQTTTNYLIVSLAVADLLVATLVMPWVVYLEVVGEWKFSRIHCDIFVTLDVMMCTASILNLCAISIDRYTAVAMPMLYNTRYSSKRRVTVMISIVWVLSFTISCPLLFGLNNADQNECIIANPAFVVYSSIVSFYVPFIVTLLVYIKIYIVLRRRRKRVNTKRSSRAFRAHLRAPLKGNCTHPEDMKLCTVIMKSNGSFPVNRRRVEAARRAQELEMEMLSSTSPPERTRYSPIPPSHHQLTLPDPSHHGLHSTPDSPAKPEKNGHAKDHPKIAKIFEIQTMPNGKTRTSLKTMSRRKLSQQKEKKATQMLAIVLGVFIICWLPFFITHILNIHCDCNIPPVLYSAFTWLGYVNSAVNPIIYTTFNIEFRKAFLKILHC
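DiscoveRx PathHunter D2 beta-arrestin cells (2,100/well) attached overnight, then compound-stimulated 90 min at 37 C in HBSS/10 mM HEPES/0.1% Tween-20 buffer; beta-galactosidase complementation read by luminescence after 1 h at ambient temperature. Dopamine 57 uM final (EC100) as control.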
Sfp PPTase inh – inhibitors of Bacillus subtilis Sfp phosphopantetheinyl transferase; Q9F4F7; Biochemical Sfp PPTase activity, qHTS; Potency, µM, for the others: max response, negative = inhibition, usual class: inhibitors; actives 3.5% (n = 310,000); active means well fitted inhibition curve with a large enough effect; inconclusive means small, poorly fitted or top-dose-only effect, or another doubt; inactive means no such curve, though single readings can be large or run the other way;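 further: the enzyme is Sfp with the accession as filed and its product quenches rhodamine fluorescence; potency means the concentration at half of the fitted maximal effect; 0% = enzyme reaction without inhibitor and -100% = no enzyme wells; top concentration of the series not given in the record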
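With Hepes-Na pH 7.6 buffer containing 10 mM MgCl2, Sfp (15 nM) modified BHQ-2-YbbR (12.5 uM) using rhodamine-CoA (5 uM). Two reads 30 minutes apart at 525/598 nm yielded each well's rate.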
* = called active by the depositor; ? = inconclusive; . = no result given; [ ] = another dose, or the depositor's remark.

SMILES	gsp antagonist	PINK1 expr mod	ClpP mod	gsp ag	Menin MLL FP FL	D2 ag	Sfp PPTase inh
COc1ccc(CNCC(O)COc2cccc3c2OC(C)(C)C3)cc1 (stereo unspecified)	-18.0%	2.7%	-6.7%	2.9%[15.4 µM]	-2.9	-5.5	9.1%
Cc1onc(-c2c(Cl)cccc2Cl)c1C(=O)N=S(C)(=O)c1ccccc1 (stereo unspecified)	-11.5%	0.6%	.	-8.7%[15.4 µM]	1.2	2.7	8.4%
COc1cc(C(=O)OCc2cccc(OC)c2OC)ccc1OCC(=O)N1CCOCC1	?	-0.3%	-6.1%	-27.6%	.	-5.3	.
COc1cc(NC(=O)CCCC(=O)OCC(F)(F)C(F)F)nc(OC)n1	-5.4%	-3.3%[38.3 µM]	-0.7%	17.2%	-2.1	-0.2	8.3%
CCOc1ccc(/C=C(\C#N)C(=O)c2c(C)[nH]c3ccccc23)cc1OC	?	1.5%	0.2%	4.7%[15.4 µM]	-1.3	-8.1	-15.6%
CC1CCCCN1S(=O)(=O)c1coc(C(N)=O)c1 (stereo unspecified)	10.3%	-2.1%	-3.8%	-61.9%[inhibitor]	-2.8	-2.7	0.9%
O=C(NCc1ccccn1)C1CCCCC1	.	-0.8%	.	-19.4%[15.4 µM]	1.3	1.3	1.2%
Cc1c(CCC(=O)O)c(=O)oc2cc3occ(-c4ccc(Br)cc4)c3cc12	?	-2.6%	.	1.4%	0.3	5.9	-12.7%
CCn1c(Cl)c(C=O)s/c1=N\S(=O)(=O)c1ccccc1	-26.1%	-1.3%	-6.6%	?	?	-10.4	?
CC(=O)Nc1ccc2nc(NS(=O)(=O)c3ccc(C)cc3)sc2c1	2.0%	0.5%	-21.0%	-6.4%[15.4 µM]	-2.3	7.5	0.9%
COC(=O)CCc1nc2ccccc2nc1OC	7.8%	0.8%	-0.2%	-7.4%[15.4 µM]	0.7	-3.0	11.6%
COc1cc(NC(=O)Cc2nn(C)c(=O)c3ccccc23)cc(OC)c1OC	-4.9%	4.7%[38.3 µM]	0.0%	-13.0%	5.1	3.9	7.6%
COC(=O)Cc1ccc2c3ccccc3n(C)c2c1	-18.5%	7.4%[38.3 µM]	-23.0%	?	-2.0	-2.3	14.6%
CCOc1ccc2nc(NCCNC(=S)NCCCN(C)C)c(C#N)cc2c1	10.1%	-1.3%	.	4.5%	1.8	-1.7	11.7%
CCO[C@@H]1OC(C(=O)N2CCN(Cc3ccc4c(c3)OCO4)CC2)=C[C@H](C2CC2)[C@H]1CCCO	-11.2%	-0.5%	-0.7%	.	-2.7	-1.0	2.5%
Cc1nc2nc(CNC(=O)OC(C)(C)C)nn2c(C)c1CCC(=O)Nc1ccc2c(c1)OCO2	10.7%	-0.7%	-5.6%	?	.	-2.3	-6.5%
COC(=O)[C@]1(Cc2ccccc2)N[C@H](CN(C)C(=O)C2CCCCC2)[C@@H]2C(=O)N(C)C(=O)[C@@H]21	5.4%	-1.3%	1.6%	.	.	-2.6	.
S=c1[nH]nc(COc2ccccc2)n1C1CCCCC1	-7.3%	9.8%	-2.4%	-24.2%	4.7	1.1	4.0%
O=C(c1ccccc1)c1ccccc1C(=O)N1CCN(C(=O)c2ccccc2)CC1	-3.0%	0.3%	.	-3.3%[15.4 µM]	-5.6	-2.0	23.6%
COc1ccc(S(=O)(=O)Nc2c(C(=O)O)[nH]c3ccccc23)cc1OC	6.5%	1.7%	?	8.0%[15.4 µM]	-1.8	2.0	?
O=C(CSc1ccc(Cl)cc1)Nc1ccc(N2CCN(C(=O)c3ccc(Cl)cc3)CC2)cc1	10.9%	12.6%[38.3 µM]	-1.1%	-52.4%[inhibitor]	2.0	5.8	18.2%
Cc1ccc(-c2nnc(SCC(=O)Nc3ccc(N4CCOCC4)cc3)o2)cc1	12.1%	-1.1%	-1.0%	15.5%	0.5	-3.2	1.2%
O=C(NCCc1ccccc1)c1c(O)c2cccc3c2n(c1=O)CC3	16.4%	1.8%	?	5.7%	2.2	-1.0	12.4%
O=C(NNC(=S)NC(=O)c1cccs1)c1ccc(NC(=O)c2ccccc2)cc1	-12.9%	6.8%	-1.8%	-4.5%[15.4 µM]	3.3	3.9	16.2%
CCOC(=O)c1ccc(N2Cc3ccccc3C2=N)cc1	-3.6%	0.2%	1.1%	?	3.5	-2.9	-3.5%
COCC1CCCCN1C(=O)C1CCN(c2nc(-c3ccccc3)nc3c2CCC3)CC1 (stereo unspecified)	-11.6%	-0.5%	-3.6%	-8.4%	.	-3.3	3.1%
CCCCN1CCCCC1C(=O)Nc1c(C)cc(C)cc1C (stereo unspecified)	10.3%	-3.7%	-0.7%	?	0.8	-3.4	2.1%
CCn1cc(C(=O)N2CCN(c3ccccn3)CC2)c(=O)c2cc(S(=O)(=O)N(C)C3CCCCC3)ccc21	-23.3%	3.2%	1.5%	11.9%	0.4	3.8	22.8%
O=C(N/N=C/C(Br)=C/c1ccccc1)c1cc(-c2ccco2)[nH]n1	-59.1%	1.8%	.	16.6%[15.4 µM]	6.5	-1.1	-22.1%
COc1ccccc1NS(=O)(=O)c1ccc(NN=C2CCCC2)c([N+](=O)[O-])c1	-10.9%	-2.2%	-1.0%	-0.2%	6.8	0.3	-0.8%
CC(C)OC(=O)c1nnc(Cc2ccc(Cl)cc2)o1	0.5%	1.2%	1.4%	-39.4%[inhibitor]	2.1	-3.4	12.3%
CN(C)c1ccc(/C=C2\c3ccccc3C(=O)N2c2ccccc2)cn1	.	3.5%	-0.8%	-24.9%	.	1.2	.
Cc1oc(-c2ccc(Cl)cc2)nc1CN1CCCC(C(=O)NCc2ccco2)C1 (stereo unspecified)	-13.2%	-1.4%	4.6%	2.8%	6.8	-4.3	9.7%
COc1ccc(S(=O)(=O)N2CCC(C(=O)NCCc3ccc(OC)c(OC)c3)CC2)cc1	.	3.0%	1.4%	-2.0%	.	-5.1	.
O=C(CN1CCNCC1)NCCSc1ccc(Cl)cc1	10.1%	2.3%	.	9.4%	0.2	2.2	9.0%
O=C(CN1CCN(C(=O)C2CC2)CC1)Nc1ccc(Cl)cc1F	10.4%	-1.2%	-0.3%	-6.0%[15.4 µM]	.	-3.2	.
COc1cc(SC#N)ccc1N=Cc1c(C)[nH]n(-c2cccc3ccccc23)c1=O	0.6%	-2.0%	28.2µM*	-7.1%	?	-1.8	-10.2%
N#Cc1ccsc1NC(=O)c1cccc(-n2cnnn2)c1	-0.3%	0.6%	.	-3.9%[15.4 µM]	23.5	-0.5	-7.9%
NC(=O)c1nc2c([nH]c1=O)CCCC2	.	-0.4%	-14.8%	-26.8%	.	-2.7	.
O=C(O)C1CCCN1c1nc(Cl)ccc1[N+](=O)[O-] (stereo unspecified)	.	1.6%	-4.9%	-55.6%[inhibitor]	.	-1.7	.
Cc1ccc(NC(=O)CC2S/C(=N/N=C/c3c[nH]c4ccccc34)NC2=O)cc1 (stereo unspecified)	4.1%	17.2%	-22.7%	-56.0%[inhibitor]	4.2	-2.3	10.2%
C=CCn1c(C)cc(-c2csc(NC)n2)c1C	-12.1%	?	0.4%	4.4%[15.4 µM]	?	-5.3	25.1µM*
COc1ccc(N(C(C)=O)S(=O)(=O)c2cccs2)cc1	2.0%	-0.7%	0.3%	16.7%	-1.2	-5.9	17.3%
Cc1cccc(C)c1NC(=O)N1CCCC1C(=O)Nc1ccc(-n2cnnn2)cc1 (stereo unspecified)	9.5%	-0.8%	.	-3.9%[15.4 µM]	0.0	-0.2	21.9%
O=C1CN=C(Nc2ccccc2Cl)N1c1ccccc1	0.7%	1.9%	0.1%	1.5%	-2.4	-5.3	1.8%
CCOc1ccc(NC(=O)CCN2CCN(S(=O)(=O)c3ccc(OC)cc3)CC2)cc1	-7.5%	-4.5%[38.3 µM]	0.2%	22.1%	0.7	0.6	10.3%
COCC(=O)Nc1cc(C)cn(Cc2ccccc2Cl)c1=O	-8.2%	0.4%	-2.8%	7.4%[15.4 µM]	7.4	-0.8	12.3%
Fc1ccc(N2N=C(c3cccs3)CC2c2ccco2)c(F)c1 (stereo unspecified)	5.4%	5.7%[38.3 µM]	?	7.2%	2.4	-3.5	-28.7%
CCOc1ccc(NC(=O)CSc2ccc(-c3ccco3)nn2)cc1	6.7%	0.3%	0.8%	7.8%[15.4 µM]	.	8.7	-11.7%
CCC1S/C(=C(\C#N)C(N)=O)N(c2ccc(F)cc2)C1=O (stereo unspecified)	-11.6%[15.4 µM]	0.2%	0.3%	18.4%	0.5	-3.6	-1.2%
Cc1ccc(C(=O)N2CCN(c3cnn(C)c(=O)c3Cl)CC2)cc1	-6.4%	-0.7%	.	11.0%	1.3	0.1	22.7%
CC(=O)Oc1ccccc1C(=O)C=Cc1cccc([N+](=O)[O-])c1	13.6%	-0.8%	2.4%	1.1%	.	-3.9	.
COc1cc(C2OCC3C(c4ccc(OC5OC(CO)C(O)C(O)C5O)c(OC)c4)OCC23)ccc1O (stereo unspecified)	2.8%	-1.1%	0.2%	.	-0.8	-3.5	-6.2%
O=C(CSc1ccc(Cl)cc1)NCc1ccco1	14.1%	1.2%	-1.9%	22.3%	5.5	-2.2	89.1µM*
CC(C)(C)CC(C)(C)NCC(O)COCCOc1ccc(Br)cc1 (stereo unspecified)	7.1%	-1.0%	1.3%	29.9%	2.8	-5.5	-21.9%
CCC(=O)N(Cc1ccc(C)cc1)Cc1cc2cc3c(cc2[nH]c1=O)OCO3	8.8%	13.4%[38.3 µM]	31.6µM*	38.0%	3.6	-1.5	12.2%
COc1ccc(CCNC(=O)Cn2c(=O)n(Cc3ccco3)c(=O)c3ccc(Cl)cc32)cc1OC	-14.4%	1.4%	-3.2%	-50.2%[inhibitor]	-5.2	-2.5	?
